# OXTR potentiate = potentiates the human oxytocin receptor response; P30559; CHO-OTR cells, Fluo-8 calcium fluorescence, potentiator mode; 0% = oxytocin EC15, 100% = EC100; activation, % at 3 µM; hit rate 0.061% among 320,000;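 active means activation above that plate's cutoff, the mean activation of tested compounds plus 3 SD, cut at about 6.6% in these data, passing the limit was not always enough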;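 further: 100% uses oxytocin at 75 nM as the full agonist control; some results filed as inactive read as strong as hits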
#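 Dosing: Single dose, 3.0 µM nominal final compound concentration | Material: Human OTR in CHO cells | Technique: Kinetic Fluo-8 calcium fluorescence | Benchmarks: EC15 oxytocin alone as 0%, 75 nM oxytocin as 100% | Probe or stimulus: Oxytocin at about EC15, sub-maximal agonist stimulus | Incubation: Compound 6 min at room temperature before oxytocin, 100 s read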
# TAAR1 antagonist = human TAAR1 antagonism | inhibition, % at 3 µM | hit rate 1.5% among 360,000 | AID 624466 | CHO RD-HGA16 TAAR1, Fluo-8 calcium fluorescence, antagonist;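 active means inhibition above a per-plate cutoff, the mean inhibition of test compounds on that plate plus 3 SD, cut at about 49% in these data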;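 further: 0% = DMSO plus EC80 beta-PEA response and 100% = DMSO alone without agonist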
# Target sequence (Q96RJ0 whole entry, looked up): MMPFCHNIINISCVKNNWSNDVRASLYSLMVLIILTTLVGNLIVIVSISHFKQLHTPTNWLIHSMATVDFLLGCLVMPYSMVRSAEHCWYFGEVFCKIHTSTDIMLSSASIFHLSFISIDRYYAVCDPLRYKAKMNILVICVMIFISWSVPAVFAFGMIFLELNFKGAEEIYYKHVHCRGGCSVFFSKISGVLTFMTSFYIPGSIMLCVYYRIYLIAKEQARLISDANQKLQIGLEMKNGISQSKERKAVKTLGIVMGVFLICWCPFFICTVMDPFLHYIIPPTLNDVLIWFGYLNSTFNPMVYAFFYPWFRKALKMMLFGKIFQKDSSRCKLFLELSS
#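 Material: CHO RD-HGA16 cells bearing hTAAR1; compound dosing: one-point dosing, 3 µM nominal final; schedule: dye loading 75 min at 37 °C, then 30 min room temperature; measured by: calcium fluorescence with Fluo-8; control set: vehicle and agonist controls; replication: n of 1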
# GPR7 antagonist = human neuropeptides B/W receptor 1 antagonism. P48145. GPR7-expressing cells, fluorescence antagonist assay. inhibition, % at 4.4 µM. hit rate 1.1% among 290,000. AID 1861; in the data active means inhibition above about 16%, passing the limit was not always enough;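 further: cells stimulated with the agonist NPW; 0% = agonist with vehicle and 100% = vehicle without agonist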
# Target sequence (P48145 whole entry, looked up): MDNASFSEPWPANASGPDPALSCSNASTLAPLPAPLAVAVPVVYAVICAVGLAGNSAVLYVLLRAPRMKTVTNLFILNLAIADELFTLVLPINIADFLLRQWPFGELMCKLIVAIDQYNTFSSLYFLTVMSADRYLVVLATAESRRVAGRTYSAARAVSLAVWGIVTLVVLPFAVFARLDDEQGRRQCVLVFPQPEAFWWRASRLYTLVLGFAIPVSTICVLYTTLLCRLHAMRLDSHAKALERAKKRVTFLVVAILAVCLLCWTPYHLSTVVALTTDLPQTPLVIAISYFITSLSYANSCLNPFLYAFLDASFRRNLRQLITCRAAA
# CHO parental Ca = signal in parental CHO cells, OX1R antagonist counter-screen. parental CHO-K1, ATP-induced calcium, Fluo-8 fluorescence. inhibition, % at 5.6 µM. hit rate 0.63% among 330,000. AID 463079;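 active means inhibition above that plate's mean sample inhibition plus 3 SD, cut at about 26% in these data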;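 further: 0% = ATP-challenged DMSO wells and 100% = DMSO wells without ATP; some compounds past the cut are filed as inactive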
#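 Assay system: untransfected parental CHO cell line. Also added: ATP agonist challenge. Dosing: one dose, 5.6 µM nominal. Measured by: Fluo-8 fluorescence. Read-out: % inhibition. Benchmarks: ATP wells versus no-ATP DMSO wells. Repeats: no replicates.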
# * = called active by the depositor; . = no result given; & = joins results of further samples; ! = not active in a repeat. A portion of the library; rates above refer to the full screens.
1) COC(=O)C1=C(C)NC(C)=C(C(=O)OC)C1c1ccccc1[N+](=O)[O-]
2) CC(C)OC(=O)C(C)(C)Oc1ccc(C(=O)c2ccc(Cl)cc2)cc1
3) COC1=CC(=O)CC(C)C12Oc1c(Cl)c(OC)cc(OC)c1C2=O (centres undefined)
4) CCN(CC)CCNC(=O)c1ccc(N)cc1
5) CN/C(=C/[N+](=O)[O-])NCCSCc1csc(CN(C)C)n1

assay / compound	1	2	3	4	5
TAAR1 antagonist	-5.4	14.5	-15.7	-0.3	-12.7
GPR7 antagonist	-14.0	-10.7	-5.0	-8.7	.
OXTR potentiate	-12.9	-7.6	-8.3	-5.4	0.7
CHO parental Ca	-25.4	-27.0	3.7	-7.2	-12.9

# Looked up above:
# OXTR potentiate, cpd 4 = -5.4
# OXTR potentiate, cpd 2 = -7.6

# (cont.)
6) CN(C)CCOC(c1ccccc1)c1ccccc1 (tested in a mixture with another compound)
7) CC(=O)Nc1c(I)c(NC(C)=O)c(I)c(C(=O)O)c1I
8) CC#C[C@]1(O)CC[C@H]2[C@@H]3CCC4=CC(=O)CCC4=C3[C@@H](c3ccc(N(C)C)cc3)C[C@@]21C
9) NS(=O)(=O)c1cc(C2(O)NC(=O)c3ccccc32)ccc1Cl (centres undefined)
10) COC(=O)[C@H]1[C@H]2C[C@H]3c4[nH]c5ccccc5c4CCN3C[C@H]2CC[C@@H]1O

assay / compound	6	7	8	9	10
TAAR1 antagonist	-13.9	-17.7&-28.7	-8.7	-10.5	-7.4
GPR7 antagonist	-9.4	2.8&-7.6	-12.1	-7.9	-14.8
OXTR potentiate	-6.4	-13.7&-8.5&0.9	-11.0	5.0	3.9
CHO parental Ca	-19.7	12.2&-0.8&-8.0	-18.5	0.2	3.9

# Shown with bars between the fields: part of the list above
entry | smiles | TAAR1 antagonist | GPR7 antagonist | OXTR potentiate | CHO parental Ca
10 | COC(=O)[C@H]1[C@H]2C[C@H]3c4[nH]c5ccccc5c4CCN3C[C@H]2CC[C@@H]1O | -7.4 | -14.8 | 3.9 | 3.9
8 | CC#C[C@]1(O)CC[C@H]2[C@@H]3CCC4=CC(=O)CCC4=C3[C@@H](c3ccc(N(C)C)cc3)C[C@@]21C | -8.7 | -12.1 | -11.0 | -18.5

# Reformatted with two lines to a compound: entries from further up
# Fields – TAAR1 antagonist | GPR7 antagonist | OXTR potentiate | CHO parental Ca
[8] CC#C[C@]1(O)CC[C@H]2[C@@H]3CCC4=CC(=O)CCC4=C3[C@@H](c3ccc(N(C)C)cc3)C[C@@]21C
    -8.7 | -12.1 | -11.0 | -18.5
[9] NS(=O)(=O)c1cc(C2(O)NC(=O)c3ccccc32)ccc1Cl (centres undefined)
    -10.5 | -7.9 | 5.0 | 0.2
[10] COC(=O)[C@H]1[C@H]2C[C@H]3c4[nH]c5ccccc5c4CCN3C[C@H]2CC[C@@H]1O
    -7.4 | -14.8 | 3.9 | 3.9

# Other results follow.
11) CN(C)CCCN1c2ccccc2Sc2ccc(Cl)cc21
12) CC(=O)O[C@H]1C(=O)[C@@]2(C)[C@H]([C@H](OC(=O)c3ccccc3)[C@]3(O)C[C@H](OC(=O)[C@H](O)[C@@H](NC(=O)c4ccccc4)c4ccccc4)C(C)=C1C3(C)C)[C@]1(OC(C)=O)CO[C@@H]1C[C@@H]2O
13) OCCN(CCO)c1nc(N2CCCCC2)c2nc(N(CCO)CCO)nc(N3CCCCC3)c2n1
14) C[N+](C)(C)CCOP(=O)([O-])OC[C@H](O)CO
15) CN(C)CCCN1c2ccccc2CCc2ccc(Cl)cc21

assay / compound	11	12	13	14	15
TAAR1 antagonist	4.3&23.8	2.0	-11.8	-14.0	-1.9
GPR7 antagonist	34.6*!	.	-4.8	-8.0	19.6
OXTR potentiate	-9.7&-9.9	3.0	-3.6	-1.0	-4.6
CHO parental Ca	-6.5&7.6	-15.0	-10.1	-9.8	-16.3

16) CCN(Cc1ccncc1)C(=O)C(CO)c1ccccc1 (centres undefined)
17) CCOC(=O)[C@H](CCc1ccccc1)N[C@H]1CCc2ccccc2N(CC(=O)O)C1=O
18) CC1(C)SC2[C@H](NC(=O)C(NC(=O)N3CCNC3=O)c3ccccc3)C(=O)N2C1C(=O)O (some centres undefined)
19) Nc1ncn(C2O[C@H](CO)[C@@H](O)[C@H]2O)c(=O)n1 (some centres undefined)
20) C[C@H]1[C@H](NC(=O)C(=NOC(C)(C)C(=O)O)c2csc(N)n2)C(=O)N1S(=O)(=O)O

assay / compound	16	17	18	19	20
TAAR1 antagonist	0.7	-16.0	.	.	-19.7
GPR7 antagonist	-15.2	.	0.9	.	.
OXTR potentiate	0.0	-4.8	.	-0.3	-7.0
CHO parental Ca	-2.7	5.4	.	-4.5	-3.9

21) Clc1ccccc1C(c1ccccc1)(c1ccccc1)n1ccnc1
22) Nc1ccn(C2OC(CO)C(O)C2O)c(=O)n1 (centres undefined)
23) CC(C)(Sc1cc(C(C)(C)C)c(O)c(C(C)(C)C)c1)Sc1cc(C(C)(C)C)c(O)c(C(C)(C)C)c1
24) CCC(C)(C)C(=O)O[C@H]1C[C@@H](C)C=C2C=C[C@H](C)[C@H](CC[C@@H]3C[C@@H](O)CC(=O)O3)[C@H]21
25) O=C(CCCN1CC=C(n2c(=O)[nH]c3ccccc32)CC1)c1ccc(F)cc1

assay / compound	21	22	23	24	25
TAAR1 antagonist	27.0	-9.8	-11.4	-2.5	4.7
GPR7 antagonist	-30.2	.	-8.9	-16.5	-11.0&-6.3
OXTR potentiate	-10.6	.	0.0	2.1	-2.6
CHO parental Ca	5.2	.	4.6	-23.5	-19.1

26) CCS(=O)(=O)CCn1c([N+](=O)[O-])cnc1C
27) CCC(=O)O[C@]1(C(=O)CCl)[C@@H](C)C[C@H]2[C@@H]3CCC4=CC(=O)C=C[C@]4(C)[C@@]3(F)[C@@H](O)C[C@@]21C
28) Nc1nc2c(ncn2COCCO)c(=O)[nH]1
29) CN1[C@@H]2CC(OC(=O)[C@H](CO)c3ccccc3)C[C@H]1[C@@H]1O[C@@H]12 (some centres undefined)
30) CS(=O)(=O)OCCCCOS(C)(=O)=O

assay / compound	26	27	28	29	30
TAAR1 antagonist	-4.9	-10.2	-26.2	-12.6&-15.3&-10.1&8.5	-2.0
GPR7 antagonist	-7.2	12.8	-3.1	-13.8&-0.5	.
OXTR potentiate	-4.6	-2.9	-2.5	-1.1&-7.3&-15.8&-6.4	-17.8
CHO parental Ca	3.8	-19.4	-3.8	3.8&-3.2&6.8&1.3	-6.1

# Shown as a hit in GPR7 antagonist, of those listed so far:
no.	smiles	TAAR1 antagonist	GPR7 antagonist	OXTR potentiate
11	CN(C)CCCN1c2ccccc2Sc2ccc(Cl)cc21	4.3&23.8	34.6*!	-9.7&-9.9

# Carrying on:
31) O=c1n(CCCN2CCN(c3cccc(Cl)c3)CC2)nc2ccccn12
32) COC(=O)C1C(O)CCC2CN3CCc4c([nH]c5ccccc45)C3CC21 (centres undefined)
33) Nc1ccn([C@@H]2CS[C@H](CO)O2)c(=O)n1
34) CC[C@H]1OC(=O)[C@H](C)[C@@H](O[C@H]2C[C@@](C)(OC)[C@@H](O)[C@H](C)O2)[C@H](C)[C@@H](O[C@@H]2O[C@H](C)C[C@H](N(C)C)[C@H]2O)[C@](C)(O)C[C@@H](C)C(=NOCOCCOC)[C@H](C)[C@@H](O)[C@]1(C)O
35) COc1ccc(Cl)cc1C(=O)NCCc1ccc(S(=O)(=O)NC(=O)NC2CCCCC2)cc1

assay / compound	31	32	33	34	35
TAAR1 antagonist	-17.9	1.0	.	10.8	-30.9
GPR7 antagonist	-6.3	.	-8.9	-4.6	-17.0
OXTR potentiate	-0.5	1.9	-9.2	-0.2	-6.5
CHO parental Ca	-10.9	-17.1	-10.8	-9.3	-7.4

36) CNC(CC(C)C)C(=O)NC1C(=O)NC(CC(N)=O)C(=O)NC2C(=O)NC3C(=O)NC(C(=O)NC(C(=O)O)c4cc(O)cc(O)c4-c4cc3ccc4O)C(O)c3ccc(c(Cl)c3)Oc3cc2cc(c3OC2OC(CO)C(O)C(O)C2OC2C[C@](C)(N)C(O)C(C)O2)Oc2ccc(cc2Cl)C1O (some centres undefined)
37) CN(C)c1nc(N(C)C)nc(N(C)C)n1
38) CC(C)(C)c1ccc(C(O)CCCN2CCC(C(O)(c3ccccc3)c3ccccc3)CC2)cc1 (centres undefined)
39) COc1cc([C@@H]2c3cc4c(cc3[C@@H](O[C@@H]3O[C@@H]5CO[C@@H](C)O[C@H]5[C@H](O)[C@H]3O)[C@H]3COC(=O)[C@H]23)OCO4)cc(OC)c1O

assay / compound	36	37	38	39
TAAR1 antagonist	4.1	-14.4	4.3	-8.3
GPR7 antagonist	.	2.3	10.0	.
OXTR potentiate	-1.9	-9.1	-9.1	4.3
CHO parental Ca	-4.9	1.2	19.3	-11.3
